# ClpP mod: qHTS Assay for Activators of ClpP | purified B. subtilis ClpP, FRET peptide cleavage, 20 min | 340,000 tested, 1.9% active | Potency, µM (titrated, usually from 57.5 µM), inactives show top-dose activity change, negative = active | AID 651965, 2013; active = well fitted falling curve with a large enough effect; inconclusive = small, poorly fitted or top-dose-only effect; inactive = no such curve, though single readings can be large or run the other way; also: potency is read from the fitted curve at half-maximal effect; the source files actives as falling curves though it sought activators and does not explain the sign; nearly all actives have a fitted effect of over 65% in size; many hits overshoot -100%
# Target sequence (P80244 whole entry, looked up): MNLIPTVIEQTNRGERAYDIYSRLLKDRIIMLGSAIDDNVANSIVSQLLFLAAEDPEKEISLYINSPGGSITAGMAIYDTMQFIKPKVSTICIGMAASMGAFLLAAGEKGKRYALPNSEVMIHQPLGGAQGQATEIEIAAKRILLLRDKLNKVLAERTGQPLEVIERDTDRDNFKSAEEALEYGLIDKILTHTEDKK
#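 Buffer: 100 mM Tris/HCl pH8, 100 mM KCl, 0.05% low protease BSA, 2.5% glycerol, 0.01% Tween-20. ClpP 10 microg/mL final; 20 min RT; delta FRET normalized to ADEP and DMSO controls.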
# Sfp PPTase inh: inhibitors of Bacillus subtilis Sfp phosphopantetheinyl transferase. Potency, µM, inactives show max response, negative = inhibition, actives largely listed as inhibitors. Biochemical Sfp PPTase activity, qHTS. 310,000 tested, 3.5% active. Q9F4F7; active = well fitted inhibition curve with a large enough effect; inconclusive = small, poorly fitted or top-dose-only effect, or another doubt; inactive = no such curve, though single readings can be large or run the other way;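 also: the enzyme is Sfp with the accession as filed and its product quenches rhodamine fluorescence; potency is read from the fitted curve at half-maximal effect; 0% = enzyme reaction without inhibitor and -100% = no enzyme wells; top concentration of the series not given in the record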
#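 After 15 min at room temperature with compound, 15 nM Sfp received 5 uM rhodamine-CoA plus 12.5 uM BHQ-2-ybbR (50 mM Hepes pH 7.6, 10 mM MgCl2). Rate came from the fluorescence difference over 30 min, ex 525/em 598 nm.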
# Menin-MLL FL inh: displaces fluorescein MLL peptide from human menin; Fluorescence polarization, fluorescein-MLL peptide displacement from menin; FP activity change, % at 61.4 µM; 290,000 tested, under 10 active; inconclusive = falling polarisation curve, or a change in total fluorescence; inactive = total fluorescence flat and polarisation flat or rising; no compound was filed as active; the % refers to the polarisation; negative = inhibition;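 also: % of control where 0% means no effect; inhibitors lower the polarisation; unlabelled MLL peptide was the positive control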
# gsp antagonist: gsp mutant antagonism; gsp-mutant cells, cAMP HTRF, 30 min; control for the full effect not named in the record; Potency, µM (titrated, usually from 76.9 µM), for the others: at the top dose activity change, negative = inhibition, hits mostly inhibitors; 340,000 tested, 0.4% active; AID 624288; active = falling curve of any shape with a large fitted effect; inconclusive = falling curve, mostly with a smaller effect; inactive = flat or rising curve; cell line not stated here;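 also: intracellular cAMP measured with PDE inhibitor Ro 20-1724 present during compound exposure; potency is read from the fitted curve at half-maximal effect; % is scaled to controls: 0 for no effect and ±100 for the full control effect; nearly all actives have a fitted effect of over 65% in size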
#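 Cells, 2000/well, grown 16–24 h in DMEM 10% FBS with 0.5 mg/ml G418, then compounds plus […] (300 uM addition stock), 30 min at 37C. cAMP read by HTRF (cAMP-d2 and anti-cAMP antibody-K in lysis buffer) after 30 min RT.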
# TRPV1 PAM: enhances activation of the human vanilloid receptor TRPV1 | TRPV1-expressing cells, Fluo-8 calcium influx, capsaicin EC20 potentiation; host cell line not named in the record; control for the full effect not named in the record | potentiation, % at 8.33 µM | 320,000 tested, 0.02% active | AID 540277; active means potentiation above 80%; inconclusive means 30% to 80%; inactive means below 30%; also: 0% is about no effect
# Target sequence (Q8NER1 whole entry, looked up): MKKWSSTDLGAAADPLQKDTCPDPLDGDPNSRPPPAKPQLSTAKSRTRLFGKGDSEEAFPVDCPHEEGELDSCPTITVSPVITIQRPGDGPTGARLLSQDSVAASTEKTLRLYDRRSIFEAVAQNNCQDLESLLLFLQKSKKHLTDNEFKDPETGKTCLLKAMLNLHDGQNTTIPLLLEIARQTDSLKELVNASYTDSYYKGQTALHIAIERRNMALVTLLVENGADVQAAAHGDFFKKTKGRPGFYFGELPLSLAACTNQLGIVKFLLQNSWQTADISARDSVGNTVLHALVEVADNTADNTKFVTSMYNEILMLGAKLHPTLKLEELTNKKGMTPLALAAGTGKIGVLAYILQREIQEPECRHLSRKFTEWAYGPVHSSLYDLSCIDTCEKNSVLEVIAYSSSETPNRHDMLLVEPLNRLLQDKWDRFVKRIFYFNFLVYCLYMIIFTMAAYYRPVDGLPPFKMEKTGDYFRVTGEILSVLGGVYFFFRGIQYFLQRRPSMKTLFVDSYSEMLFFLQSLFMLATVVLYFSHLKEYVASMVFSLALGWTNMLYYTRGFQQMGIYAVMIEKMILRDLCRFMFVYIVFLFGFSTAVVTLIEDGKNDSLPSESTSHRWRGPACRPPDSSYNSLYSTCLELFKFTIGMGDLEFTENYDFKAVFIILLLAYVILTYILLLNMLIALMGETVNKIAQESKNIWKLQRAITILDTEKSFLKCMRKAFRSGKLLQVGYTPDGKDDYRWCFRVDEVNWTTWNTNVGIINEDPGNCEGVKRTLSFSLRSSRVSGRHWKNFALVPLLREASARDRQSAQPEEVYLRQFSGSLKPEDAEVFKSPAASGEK
#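 TRPV1-expressing cells were cultured overnight at 35.5C and loaded with Fluo-8 calcium dye for 40 to 90 min at room temperature. After a 10 s baseline, compound was added and calcium influx was read kinetically for 3 min (ex 480/em 520 nm).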
# CtBP-E1A blk: inhibitors of CtBP/E1A interaction. AlphaScreen GST-E1A/His-CtBP binding, 1536-well; active compounds read low; control for the full effect not named in the record. activity change, % (concentration not given with the values). 340,000 tested, 0.49% active; in the data active means activity change below about -65%; inconclusive means about -30% to -65%; inactive means above about -30%; also: % is scaled to controls: 0 for no effect and ±100 for the full control effect
#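 In 5 uL wells, 23 nL compound meets equimolar GST-E1A and His-CtBP (5X stock 125 nM each) for 2 h, 37 °C. Beads (5X, 50 ug/mL) then 1 h, 37 °C, dark.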
# gsp agonist: agonists of gsp mutant (McCune-Albright syndrome) | gsp mutant cells, cAMP HTRF, 30 min; control for the full effect not named in the record | Potency, µM (series often up to 76.9 µM), without a hit: at the highest dose activation (cAMP increase), usual class: activators | 340,000 tested, 0.13% active | AID 624287; active = well fitted activation curve with a large enough effect; inconclusive = small, poorly fitted or top-dose-only effect, or another doubt; inactive = no such curve, though single readings can be large or run the other way; cell line not stated here;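 also: phosphodiesterase inhibitor Ro 20-1724 added with compounds to block cAMP breakdown; potency is read from the fitted curve at half-maximal effect; nearly all actives have a fitted effect of over 60% in size; about a fifth of the inactives were tested at one dose only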
#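 Cells in DMEM/10% FBS with G418 were pretreated with compounds in DMSO plus […] (300 uM stock) for 30 min at 37C. cAMP was measured by HTRF (cAMP-d2 plus anti-cAMP antibody-K) after 30 min at room temperature.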
# Starred values were filed as active, the others as inactive; ? = inconclusive; / = not tested or not shown; & = joins results of further samples; [ ] = remark or other dose.
canonical_smiles,ClpP mod,Sfp PPTase inh,Menin-MLL FL inh,gsp antagonist,TRPV1 PAM,CtBP-E1A blk,gsp agonist
O=C(Nc1c(Cl)cc(Cl)cc1C(=O)NCc1cccnc1)c1ccc(Cl)cc1Cl,-6.0%,5%,2.9,5%,-2,3,?
S=C(NCCN1CCOCC1)Nc1ccc(Cl)cc1,1.2%,6%,5.8,16%,-14,0,?
Brc1ccc(OCc2nnc3n2CCC3)cc1,-1.1%,14%,0.2,0%,2,/,?
CC(C)(C)c1ccc(OCc2ccc(C(=O)N3CCOCC3)o2)cc1,/,-5%,-4.8,-19%,-15,-7,-3%[15.4 µM]
O=C(C=CC=Cc1ccccc1)c1ccc([N+](=O)[O-])cc1,-0.3%,/,/,/,/,-4,2%
COc1ccc(NC(=O)CNc2cccc(C#N)c2)cc1Cl,-8.8%,-1%,0.1,-17%,14,0,-34%[inhibitor]
COc1ccccc1C(=O)Nc1nnc(S(=O)(=O)N2CCCCCC2)s1,-6.3%&-2.3%,6%,-7.8,-4%,0,-17,25%
CC(=O)Nc1nc(-c2ccc3ccccc3c2)cs1,0.4%,-1%,-1.6,-14%,8,6,-12%[15.4 µM]
C=CCNC(=S)N1CCN(Cc2ccc3c(c2)OCO3)CC1,-0.6%,18µM*,0.4,3%,-36,/,?
COc1ccccc1NC(=O)c1ccc(NC(=O)Cc2n[nH]c(=O)c3ccccc23)cc1,80%,1%,-6.0,6%,24,1,-36%[inhibitor]
COc1ccccc1NC1CCCCC1NS(=O)(=O)c1ccccc1 (stereo not drawn),1.1%,3%,0.7,-15%,4,-25,11%
CC(C)(C)NC(=O)c1sccc1C(=O)O,0.6%,14%,0.6,-3%,6,10,7%
CCOc1ccc(OCc2ccc(C(=O)NCc3cccnc3)o2)cc1,-4.7%,17%,2.5,-4%,-14,4,-25%
Cn1cc(CN(Cc2ccccc2)C[C@@H]2CCC(=O)N2)c(-c2ccccc2F)n1,/,21%,-2.7,-5%,25,0,?
CCC(=O)Nc1ccc(C(=O)Nc2cccc(C)n2)cc1,4.0%,-13%,-2.9,-1%,3,/,?

# The final three compounds of the part above open the next one.
canonical_smiles,ClpP mod,Sfp PPTase inh,Menin-MLL FL inh,gsp antagonist,TRPV1 PAM,CtBP-E1A blk,gsp agonist
CCOc1ccc(OCc2ccc(C(=O)NCc3cccnc3)o2)cc1,-4.7%,17%,2.5,-4%,-14,4,-25%
Cn1cc(CN(Cc2ccccc2)C[C@@H]2CCC(=O)N2)c(-c2ccccc2F)n1,/,21%,-2.7,-5%,25,0,?
CCC(=O)Nc1ccc(C(=O)Nc2cccc(C)n2)cc1,4.0%,-13%,-2.9,-1%,3,/,?
O=C(Cn1cnc2sc(-c3ccccc3)cc2c1=O)NCc1ccco1,-3.0%,32µM*,11,4%,-13,-1,?
CC[C@]12c3[nH]c4ccccc4c3CCN1C(=O)C(CC(=O)NCCc1ccccn1)C[C@@H]2C(=O)N1CCN(C(=O)C2CC2)CC1 (stereo partly drawn),-3.5%,/,/,11%,/,0,/
C/C(=N\NC(=O)c1cccc(S(=O)(=O)N2CCCCC2)c1)c1ccc(C)o1,13%,8%,-5.6,-6%,-25,-3,-9%[15.4 µM]
CCOc1cc(C)c(Cl)cc1S(=O)(=O)n1nnc2ccccc21,-0.4%,6%,0.6,10%,2,5,-2%
COc1ccccc1C(O)(C(=O)N(NC(C)=O)c1ccccc1)c1ccccc1OC,/,4%,0.1,12%,18,-1,13%[15.4 µM]
O=C(O)c1ccc(S(=O)(=O)c2ccc3c(c2)C(=O)N(c2ccc(Br)cc2)C3=O)cc1,/,1%,/,3%,-5,-10,-8%[15.4 µM]
CC1CCN(C(=O)C2(NC(=O)Nc3cccc(F)c3)CCCCC2)CC1,-4.6%,13%,-2.3,5%,-7,3,13%
COc1ccccc1-c1cc(C(=O)NN)[nH]n1,/,-4%,0.7,16%,9,1,-4%[15.4 µM]
O=C(CNC(=O)c1ccccc1F)NCCc1ccc(Cl)cc1,/,10%,/,1%,-7,4,16%
COc1cc(CCC(=O)Nc2nccs2)cc(OC)c1OC,0.9%,10%,-0.1,5%,13,-3,6%
O=C(/C=C/Nc1ccccc1F)c1cccs1,-3.0%,9%,9.2,-5%,-12,-12,2%
O=C(O)CSc1nnc2c(n1)[nH]c1ccccc12,/,50µM*,1.0,-13%,1,-2,5%[15.4 µM]
N#Cc1ccc(S(=O)(=O)N2CCN(Cc3cccs3)CC2)cc1,0.2%,/,/,2%,-4,11,4%
COCCNc1nc(C)cc(-c2cc(C(=O)Nc3ccccc3)on2)n1,-0.6%,/,/,-3%,/,1,-12%
CON1C(=O)C(=O)N(OC)C2CCCCCC21 (stereo not drawn),0.8%,3%,4.8,-2%,4,0,-5%

canonical_smiles,ClpP mod,Sfp PPTase inh,Menin-MLL FL inh,gsp antagonist,TRPV1 PAM,CtBP-E1A blk,gsp agonist
Cc1nc(C)c(C(=O)NNC(=O)c2ccc(Br)cc2)s1,-1.2%,12%,2.8,14%,-8,1,20%
COc1ccc(CNC(=O)CCS(=O)(=O)c2cc3c(cc2Cl)NC(=O)CO3)cc1,-3.1%,10%,-0.7,4%,5,-20,-47%[inhibitor]
Cc1occc1C(=O)NNC(=O)NC12CC3CC(CC(C3)C1)C2,-2.4%,-19%,3.3,2%,21,-6,?
CCc1nc(SCC(=O)Nc2ccccc2C)n[nH]1,-2.7%,17%,-9.3,-4%,?,3,29%
CCOc1ccc(C(=O)OCC(=O)NCC2CCCO2)cc1 (stereo not drawn),2.1%,/,/,13%,/,4,10%
Nc1ccc(NS(=O)(=O)c2ccccc2)cc1,-0.7%,-13%,1.8,6%,-9,9,-109%[inhibitor]
CCC1ON(c2ccccc2)C2c3nc4ccccc4n3CC12 (stereo not drawn),-6.0%,19%,-2.4,7%,-37,-23,-48%[inhibitor]
CC1(C)SC(=S)N(/N=C/c2cccnc2)C1N(O)C(=O)NC1CCCCC1 (stereo not drawn),1.2%,11%,2.2,-3%,3,-2,-6%[15.4 µM]
CC1CCC2(CC1)NC(=O)N(CC(=O)Nc1ccc(F)cc1)C2=O (stereo not drawn),0.8%,/,/,-15%,17,19,?
COc1cccc(-c2cc(C(=O)Nn3cnnc3)c3ccccc3n2)c1,-8.0%,14%,-6.1,-5%,-1,5,-31%[inhibitor]
Cn1c2ccccc2c2c(C(=O)NCc3ccco3)cn(C3CCCCC3)c(=O)c21,-9.9%,?,2.4,-11%,-19,-1,?
O=C(O)c1[nH]c2ccccc2c1C=NCc1ccccc1Cl,?,15%,-0.5,5%,2,/,0%
CC1(Br)C2CCCC1C2S(=O)(=O)c1ccccc1 (stereo not drawn),-9.5%,13%,4.9,5%,-20,8,?
O=S(=O)(Nc1cccnc1)c1ccc(Cl)cc1,-2.5%,20%,3.0,1%,2,-2,20%
O=C(O)C1CCN(S(=O)(=O)c2cccnc2)CC1,-1.7%,-3%,2.9,4%,/,-1,12%

canonical_smiles,ClpP mod,Sfp PPTase inh,Menin-MLL FL inh,gsp antagonist,TRPV1 PAM,CtBP-E1A blk,gsp agonist
CCO[C@@H]1OC(C(=O)NC2CC2)=C[C@H](c2ccc3c(c2)OCO3)[C@H]1CCCO,0.1%,21%,0.7,-8%,21,7,/
COC(=O)C1C2C=CC3(CN(CC4CCCO4)C(=O)C13)O2 (stereo not drawn),-1.2%,?,5.8,28%,-9,4,-11%
O=C1OCCC1Sc1nc2ccccc2[nH]1 (stereo not drawn),-2.1%,10%,-1.2,6%,7,7,-36%
COc1ccc(N2CCN(C(=O)c3cccc(F)c3)CC2)c([N+](=O)[O-])c1,-0.1%,13%,0.0,-5%,-10,-15,-48%[inhibitor]
O=C(Cc1ccc(Cl)cc1)NCCc1ccc(F)cc1,1.3%,/,/,-6%,/,/,-41%[inhibitor]
Cc1c(NC(=O)C(C)OC(=O)CC2Sc3ccccc3NC2=O)c(=O)n(-c2ccccc2)n1C (stereo not drawn),1.8%,-3%,2.3,1%,8,-1,43%
Cc1cc(C)n(CC(O)CN(c2cccc([N+](=O)[O-])c2)S(=O)(=O)c2ccccc2)n1 (stereo not drawn),/,6%,-6.0,0%,-6,10,1%[15.4 µM]
Cc1ccc(Cl)cc1NC(=S)N(Cc1cccs1)C1CCCC1,0.5%,12%,-0.3,-18%,5,2,16%
C#CCn1c(=NC(=O)c2cccs2)sc2cccc(OC)c21,4.3%,79µM*,1.4,-8%,10,10,-24%
CC1(C)C(=O)Nc2ccccc2N1C(=O)COC(=O)c1ccc(Cl)c(S(=O)(=O)NCc2ccccc2)c1,0.5%,5%,2.9,-31%,-5,-5,-14%
CCN(CC)S(=O)(=O)c1ccc(OC(C)C)c(NC(=O)c2c3c(nc4ccccc24)CCN(Cc2ccccc2)C3)c1,-7.7%,-7%,5.5,3%,?,19,?
C=CC[C@@H](CC(=O)NCCO)C(=O)NC[C@@H](OC(=O)[C@H](CC=C)CC(=O)OC(C)(C)C)c1ccccc1,-2.5%,/,/,-1%,/,-16,/
COc1ccc(-c2nnn(CC(=O)N(CC(=O)NCCC(C)C)Cc3cccs3)n2)cc1OC,0.0%,-11%,2.1,-20%,13,-1,-12%
Cc1nn(CC(=O)NCc2ccc(-n3cccn3)cc2)c(C)c1[N+](=O)[O-],0.4%,3%,4.6,5%,-3,4,9%

# Part of the list above in order of SMILES length, falling.
canonical_smiles,ClpP mod,Sfp PPTase inh,Menin-MLL FL inh,gsp antagonist,TRPV1 PAM,CtBP-E1A blk,gsp agonist
COc1ccc(-c2nnn(CC(=O)N(CC(=O)NCCC(C)C)Cc3cccs3)n2)cc1OC,0.0%,-11%,2.1,-20%,13,-1,-12%
COc1ccc(N2CCN(C(=O)c3cccc(F)c3)CC2)c([N+](=O)[O-])c1,-0.1%,13%,0.0,-5%,-10,-15,-48%[inhibitor]
Cc1ccc(Cl)cc1NC(=S)N(Cc1cccs1)C1CCCC1,0.5%,12%,-0.3,-18%,5,2,16%

# Screening data as filed in PubChem.
